# Beta apoptosis: blocks beta cell apoptosis | INS-1E cytokine-induced death, ATP luminescence, 48 h; percent of positive-control rescue, neutral wells zero | AID 435005 | 300,000 compounds, 0.8% hits | protection from apoptosis, % (no concentration beside the values);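 active = all replicates at 75% or more, or half of them and the mean; inconclusive = half reach 75% but not the mean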;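 also: 0% = cytokine-treated negative control wells and 100% = positive control rescue; higher means more ATP so stronger rescue from cytokine killing; wells of about 40 µL received 100 nL stock; the first replicate is given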
# MLL AF4-AF9 inh: blocks AF4 peptide binding to human AF9; P42568; 350,000 compounds, 0.47% hits; AlphaScreen, biotin-AF4 peptide binding to FLAG-AF9; inhibition, % at 10 µM;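 active = every replicate reaching a set inhibition limit, whatever the replicate mean, cut at about 25% in these data; inconclusive = mean inhibition reaches that limit but some replicates miss it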;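 also: 0% = plate neutral control median and 100% = total signal loss; the record names both 10 and 1 µM as test concentration; the first replicate is given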
# Target sequence (P42568 whole entry, looked up): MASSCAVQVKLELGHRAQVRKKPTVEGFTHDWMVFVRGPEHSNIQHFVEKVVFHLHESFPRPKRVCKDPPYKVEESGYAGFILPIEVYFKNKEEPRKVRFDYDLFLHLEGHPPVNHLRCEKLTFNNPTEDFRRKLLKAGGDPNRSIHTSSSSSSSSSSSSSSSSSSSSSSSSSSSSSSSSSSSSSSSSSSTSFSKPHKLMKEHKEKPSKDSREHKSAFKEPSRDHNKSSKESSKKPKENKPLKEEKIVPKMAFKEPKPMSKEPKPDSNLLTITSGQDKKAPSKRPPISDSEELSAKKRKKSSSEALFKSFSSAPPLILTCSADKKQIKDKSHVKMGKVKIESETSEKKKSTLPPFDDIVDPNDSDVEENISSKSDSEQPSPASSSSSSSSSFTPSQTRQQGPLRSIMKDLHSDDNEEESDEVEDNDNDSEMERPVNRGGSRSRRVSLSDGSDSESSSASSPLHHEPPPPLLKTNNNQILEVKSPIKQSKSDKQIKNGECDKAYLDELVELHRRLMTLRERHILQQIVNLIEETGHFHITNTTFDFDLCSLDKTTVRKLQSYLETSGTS
# Calb FLC: C. albicans growth modulation with fluconazole | growth inhibition, % (test concentration not listed) | 300,000 compounds, 0.57% hits | AID 1979 | C. albicans CaCi-2 (fluconazole-resistant clinical isolate) + fluconazole, Alamar Blue growth, 48 h;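 active = most replicates above 75%; inconclusive = exactly half above 75%; inactive = most below 75%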;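 also: all wells also contain fluconazole at 8 µg/ml as a sub-toxic cotreatment; 0% = median of DMSO wells and 100% = median of geldanamycin control wells; wells of about 8 µL received 7.5 nL stock; the first replicate is given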
# T cruzi inh: blocks replication of Trypanosoma cruzi; 300,000 compounds, 1.4% hits; inhibition, % (no concentration beside the values); T. cruzi beta-gal in NIH3T3, luminescence, 90 h; AID 1885;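 active = mean inhibition across valid replicates above about 55%, limit read from the data; inconclusive = mean below that limit but half or more replicates reach it; inactive = mean below it, under half of replicates reach it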;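 also: signal also drops with host cell toxicity which is not excluded here; 0% = plate median of DMSO wells and 100% = zero luminescence signal; higher percent means less beta-gal luminescence so fewer parasites; stock transfer was 50 nL into about 50 µL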
# RanGTP-Impb inh: disruptors of Ran-importin-beta complex formation – biochemical, FRET, CFP-Ran, YFP-importin-beta, homogeneous, primary screen | cell-free CFP-Ran/YFP-importin-beta FRET ratio | inhibition, % (no concentration beside the values) | 300,000 compounds, 1.1% hits;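 active = most replicates above 15%; inconclusive = exactly half above 15%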;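 also: 0% = DMSO wells and 100% = Ran loaded with GDP instead of GTP; wells of about 40 µL received 100 nL stock; the first replicate is given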
# ALR H2O2 inh: human ALR oxidase inhibition via reduced H2O2. P55789. inhibition, % (concentration not given with the values). 290,000 compounds, 3.8% hits. purified ALR, DTT oxidation, H2O2 HRP-luminol luminescence. AID 485317;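 active = mean and each replicate at 75% or more; inconclusive = only one of the two met; inactive = neither met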;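 also: stock transfer was 7.5 nL into about 7.5 µL; 0% = neutral wells and 100% = wells with inactivated enzyme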
# Target sequence (P55789 whole entry, looked up): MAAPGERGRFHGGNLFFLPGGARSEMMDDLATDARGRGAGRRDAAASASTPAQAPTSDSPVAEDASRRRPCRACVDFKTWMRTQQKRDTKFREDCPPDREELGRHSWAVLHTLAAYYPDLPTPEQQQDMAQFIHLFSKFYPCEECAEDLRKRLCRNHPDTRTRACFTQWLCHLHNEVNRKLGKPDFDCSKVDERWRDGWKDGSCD
# rRNA inh HTS: inhibits bacterial ribosomal RNA function over humanized ribosomes | AID 720706 | E. coli WT GFP vs humanized-ribosome RFP mutants, fluorescence, 24 h; stronger effect = lower value; DMSO median 0, no signal -100 | GFP signal change (wild-type ribosome), % (test concentration not listed) | 350,000 compounds, 1.6% hits;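 active = significant combined selectivity score with lowered wild-type GFP, culture density cut under 30%, mutant RFP and density less affected; inactive = any of these conditions unmet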; also: one replicate is shown; some compounds called inactive have numbers as strong as hits
# FGF22 binding: FGF22 (human) thermal shift binding. calls only at 9.99 µM. recombinant FGF22 thermal shift, SYPRO orange fluorescence; percent of sucrose octasulfate shift, DMSO zero. 340,000 compounds, 1.5% hits. Q9HCT0;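 active = melting point raised past a set limit in the mean and every replicate; inconclusive = no clear call; three in four hits are not shown here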
# Target sequence (Q9HCT0 whole entry, looked up): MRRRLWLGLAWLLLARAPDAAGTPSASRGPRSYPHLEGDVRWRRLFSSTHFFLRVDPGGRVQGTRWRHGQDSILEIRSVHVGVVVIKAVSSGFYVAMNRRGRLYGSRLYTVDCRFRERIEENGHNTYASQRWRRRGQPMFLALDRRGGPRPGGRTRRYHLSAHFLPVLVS
# rRNA inh HTS OD600: recorded beside rRNA inh HTS, whose call it bears; OD600 change, %; measured here: OD600 growth;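 optical density of the mix in the first replicate; 0 = DMSO median and -100 = no signal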
# rRNA inh HTS RFP: also measured in rRNA inh HTS; calls as there; RFP signal change, %; measured here: RFP humanized mutant strains;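 first replicate; 0 = DMSO median and -100 = no signal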
# * = called active by the depositor; i = inactive; ? = inconclusive; / = no result given. Only part of the results is shown, so the mix of outcomes need not match the whole.
structure	Beta apoptosis	MLL AF4-AF9 inh	Calb FLC	T cruzi inh	RanGTP-Impb inh	ALR H2O2 inh	rRNA inh HTS	rRNA inh HTS OD600	rRNA inh HTS RFP	FGF22 binding
CCC(C)NS(=O)(=O)c1cc2c3c(c1)CCC(=O)N3CCC2 (centres undefined)	-6	-1.1	-3	-6	1.4	-18	-1	0	-2.8	i
O=C1NCC(=O)N2CCC[C@@H]12	-5	-0.9	5	-17	0.9	0	/	/	/	i
O=C(Nc1nc(-c2ccc3c(c2)OCCO3)cs1)c1ccc(S(=O)(=O)N2CCCCC2)cc1	17	/	-2	48	2.8	-1	/	/	/	/
CC(=O)N(C)Cc1ccc(C(=O)CCl)cc1	3	-0.7	?	74*	7.9	/	19	18	-0.8	/
CC(C)CC(N)C(=O)OCc1ccc([N+](=O)[O-])cc1 (centres undefined)	-4	-1.0	-16	-20	0.1	0	19	2	-2.8	i
COc1ccc(C(=O)N2CCCC(C(=O)N3CCN(c4ccccc4)CC3)C2)cc1 (centres undefined)	-5	-1.3	4	2	3.0	35	/	/	/	i
Cc1ccc(S(=O)(=O)Nc2cccc3ncccc23)s1	32	/	-6	53	-0.8	-12	-55	-80	-21	/
COc1ccc(-c2nnc(SCC(=O)N3CCCC3=O)n2N)cc1OC	-2	1.3	/	/	/	-11	3	11	-3.6	i
O=C(CSc1nc2ncccc2[nH]1)c1ccc(F)cc1	-6	/	-4	-1	-0.2	/	/	/	/	/
Cc1cccc(OC(=O)c2cncc(Br)c2)c1	-1	1.3	-30	-1	-2.5	2	4	8	-0.6	i
COc1ccc(CN2CCNC(=O)C2CC(=O)N(C)CCCN2CCOCC2)cc1C (centres undefined)	-2	0.7	-9	-20	2.7	-6	7	-10	-0.4	i
CCOC(=O)Nc1nnc(/C=C/c2ccc(OC)cc2)s1	-4	/	-3	-21	-1.4	1	/	/	/	/
N#Cc1c(N)nc2c(c1N)CC(=O)N2c1ccc(Cl)cc1	-9	-1.0	-11	-5	?	-29	-31*	-1.3*	-6.3*	i
Cc1cnc(NC(=O)CSc2nnc(COc3ccccc3)o2)s1	1	2.2	-9	-9	2.7	/	2	5	5.2	i
c1ccc(C2(CN3CCNC[C@@H]3CC3CCCCC3)CC2)cc1	-7	1.4	/	/	/	-2	5	7	-0.7	i
Cc1ccc(/C=N/NC(=O)c2ccc3nc[nH]c3c2)s1	2	-10	5	-7	1.9	54	-6	-8	10	i
CC(C)c1cc[n+](-c2nc([O-])sc2C=O)cc1	-1	/	4	3	-4.6	-28	/	/	/	/
CC(O)c1nc2ccccc2n1CCCc1ccccc1 (centres undefined)	-5	1.0	-54	24	-0.8	-1	-23	-27	-3.0	i
CCOC(=O)N1CCN(C(=O)c2c[nH]c3ccc(S(=O)(=O)N(C)c4ccccc4C)cc3c2=O)CC1	-6	-0.1	1	2	-3.0	-8	-4	-15	2.6	i
O=C(COc1ccc(Cl)cc1Cl)OCC(=O)N1CCCc2ccccc21	-4	-3.2	9	-13	-1.3	-1	1	-3	-1.5	i
Cc1ccc(NC(=O)CN2C(=O)NC(Cc3ccccc3)C2=O)cc1Cl (centres undefined)	-1	-2.5	/	/	/	-2	-5	2	1.6	i
O=C(COC(=O)CN1C(=O)C2CCCCC2C1=O)Nc1ccc(F)c(F)c1F (centres undefined)	-3	-2.1	/	/	/	-5	8	1	2.2	i
Cc1nc2c(F)c(F)c(C(F)(F)F)c(F)c2[nH]1	2	/	-1	49	-0.8	-1	/	/	/	/
CNC(=S)Nc1ccc(C(N)=O)cc1	-8	-17	-5	-18	27*	-1	9	-1	-5.5	i
CCOC(=O)c1c(/N=C/c2cc(C)ccc2O)sc2c1CCC2	-2	/	-9	-14	0.0	-13	/	/	/	/
NNC(=O)c1ccc(CSc2nc3ccccc3[nH]2)cc1	-2	-1.2	-1	-1	1.6	40	-4	5	8.1	i
Cc1cc(Nc2cccc(F)c2)n2c(n1)nc1ccccc12	5	-57	44	-13	1.2	0	7	16	-2.4	i
CN(C(=O)CC1C(=O)NCCN1Cc1cccc(F)c1F)C1CCOCC1 (centres undefined)	-3	-14	6	-10	-3.4	-9	1	8	-0.9	i
CCCc1nc2ccccc2n1CC(O)COc1ccc(NC(C)=O)cc1 (centres undefined)	2	0.4	36	-9	-7.6	-13	11	9	-1.3	/
O=C(COc1ncnc2cc([N+](=O)[O-])ccc12)NC(=O)NC1CCCCC1	-4	-1.1	-6	67*	0.8	-19	4	4	0.1	i
Cc1cc(N)n(-c2nc(-c3cccnc3)nc3ccccc23)n1	-5	/	-17	9	-4.0	6	/	/	/	/
C/C(=N\NC(=O)c1c(Br)c(C)nn1C)c1ccc(NC(=O)C(C)Oc2ccc(Cl)cc2C)cc1 (centres undefined)	/	/	1	16	10.0	-7	/	/	/	/
COc1ccc(-c2cc(=O)oc3cc(OCc4nn[nH]n4)ccc23)cc1	-3	/	13	-5	3.4	-10	/	/	/	/
COCCCn1c(C23CC4CC(CC(C4)C2)C3)n[nH]c1=S	1	-4.5	-3	12	3.5	/	-16	-14	-14	i
CCCc1ncc(C(O)c2ccccc2OC)n1C (centres undefined)	-11	-4.9	-3	-13	4.3	-1	12	5	1.6	i
NS(=O)(=O)c1ccc(NC(=O)CNC(=O)c2ccc3c(c2)OCO3)cc1	7	0.6	/	/	/	-14	13	22	2.7	i
CCCc1cc(=O)[nH]c(SCC(=O)Nc2cc(S(=O)(=O)N3CCCCC3)ccc2C)n1	1	0.3	/	/	/	1	/	/	/	i
O=C(N/N=C/c1cn(-c2cccs2)nc1-c1ccccc1)c1ccc(O)cc1	-14	/	30	25	1.9	-3	/	/	/	/
COCc1c(C(=O)Nc2nc(C)cs2)oc2ccccc12	-1	0.2	-6	13	-7.7	2	4	15	0.7	i
COc1ccc(N2C(=O)C3C4C=CC(C4)C3C2=O)c([N+](=O)[O-])c1 (centres undefined)	-1	-1.4	-5	-6	0.1	-5	0	0	1.2	i
CN(C(=O)CSc1nncc2ccccc12)C1CCCCC1	-3	0.1	-12	18	/	-3	11	10	0.4	i
O=C(Nc1cccc(Cl)c1Cl)c1ccccc1NC(=O)C1CC=CCC1C(=O)O (centres undefined)	-6	-3.0	36	/	/	-9	-12	0	1.8	i
CCN(CC)S(=O)(=O)c1csc(C(=O)Nc2ccccn2)c1	-6	/	-3	10	1.4	-5	/	/	/	/
CC(C(=O)O)N1C(=O)c2ccccc2C1=O (centres undefined)	-2	/	-17	-4	11	/	/	/	/	/
COc1ccc(NC(=O)C2CCN(S(C)(=O)=O)CC2)c(OC)c1	-8	-0.1	-9	-7	0.0	-3	5	5	0.9	i
COc1ccc(-n2c(=O)c3c4c(sc3n3c(=S)[nH]nc23)CCCC4)cc1	8	-6.3	93*	-26	?	96*	-14	-31	-13	i
CC1CCC2C(=O)N(c3ccccc3OC(=O)c3ccccc3F)C(=O)C2C1 (centres undefined)	-5	1.8	-1	-7	-4.7	-4	-1	2	-2.5	i
CN(C(=O)c1ccc(NC(=O)Cc2cccc(NC(=O)C3CCN(C(=O)C4CCCC4)CC3)c2)cc1)C1CCCC1	3	2.9	/	/	/	-3	-6	-4	9.6	i
CCOc1ccccc1C(=O)N/N=C/c1c[nH]c2ccccc12	-4	-1.0	-6	15	-0.3	0	-3	3	-2.2	i
O=S(=O)(NC1=NCCCCC1)c1ccc2sc(NS(=O)(=O)c3ccc4ccccc4c3)nc2c1	-8	-7.2	14	12	3.2	87*	-1	-7	2.8	i

# Further records follow.
structure	Beta apoptosis	MLL AF4-AF9 inh	Calb FLC	T cruzi inh	RanGTP-Impb inh	ALR H2O2 inh	rRNA inh HTS	rRNA inh HTS OD600	rRNA inh HTS RFP	FGF22 binding
O=C(NN=C1CCCC1)NC1CCCCC1	-7	8.4	2	1	2.4	/	3	4	-3.4	i
CCOC(=O)C(N)CSC1CC(=O)N(c2ccc(OCC)cc2)C1=O (centres undefined)	-6	0.5	3	-7	-0.2	-3	15	9	1.6	/
CCCCC(=O)NC(c1ccco1)c1c(O)ccc2ccccc12 (centres undefined)	1	/	2	17	4.2	-15	/	/	/	/
COc1ccccc1N(CCOc1ccccc1)S(=O)(=O)c1ccccc1	-4	-0.6	/	/	/	-1	-3	-4	3.2	i
CCCC(O)(CCN1CCCCC1)c1ccc(OCC)cc1 (centres undefined)	/	1.1	-5	-8	2.0	/	4	8	-2.4	i
O=C1CCc2cc(S(=O)(=O)NCc3ccccc3Cl)ccc2N1	-5	1.0	/	/	/	8	2	-2	-1.1	i
Cc1ccnc(NC(=O)CNC(=O)c2ccc(Br)o2)c1	-22	-1.0	4	-4	?	-1	17	16	4.7	i
CS(=O)(=O)N1CCN(c2ccc(NC(=O)c3cccnc3Cl)cc2)CC1	-1	/	1	-8	3.7	-10	/	/	/	/
COc1ccccc1C(=O)N/C(=C/c1ccc(Br)cc1)C(=O)N1CCCC1	5	2.7	8	5	4.7	-2	-48	-70	-11	i
COc1ccc(C(=O)NCCOc2ccccc2Cl)c(OC)c1OC	-3	1.8	7	-5	1.6	-4	-29	-34	-3.9	i
O=C(COC(=O)c1n[nH]c2ccccc12)NC(=O)NC12CC3CC(CC(C3)C1)C2	13	/	-4	16	-2.4	-16	/	/	/	/
O=C(CSc1nc(N2CCOCC2)nc(N2CCOCC2)n1)Nc1ccc([N+](=O)[O-])cc1	0	-2.3	-13	-9	2.5	-1	19	15	5.2	i
Cc1ccc(CCNC(=O)CCS(=O)(=O)Cc2ccc(C)cc2)cc1	3	1.9	4	3	2.0	-7	13	15	1.2	i
O=C(Nc1cccc(F)c1)C1CCN(C(=O)NCc2ccccc2)CC1	-11	-3.7	-3	-12	4.5	-4	-3	0	-0.4	i
CNC(=O)c1ccc(NC(=O)CC2SC(N3CCCC3)=NC2=O)cc1 (centres undefined)	-5	-0.2	/	/	/	0	/	/	/	i
O=C1C2C3C=CC(C3)C2C(=O)N1c1ccc2c(c1)CCC2 (centres undefined)	-2	-6.8	13	-15	4.6	4	-1	-7	-1.9	i
CN(CC(=O)Nc1ccc(Cl)c(Cl)c1)C(=O)C1CCC1	1	-0.4	/	/	/	-30	3	-30	0.8	i
c1nc(NC2CCCCCC2)c2[nH]cnc2n1	/	-12	22	5	7.5	-17	-9	-7	0.0	i
Cc1ccc(C(=O)NC(N2CCCC2)C(Cl)(Cl)Cl)cc1 (centres undefined)	/	/	-26	-4	0.1	-4	/	/	/	/
O=C(C(Cc1ccccc1)N1C(=O)c2ccccc2C1=O)N1CCc2ccccc21 (centres undefined)	-3	/	-3	20	-0.2	1	/	/	/	/
CC(C)c1nnc(NC(=O)C2CCCN2C(=O)Nc2ccccc2F)s1 (centres undefined)	-9	4.9	-1	-8	-5.3	4	8	11	-0.4	i
CCc1nnc(NC(=O)c2ccc(S(=O)(=O)N(C)Cc3ccccc3)cc2)o1	7	2.9	0	-6	2.9	2	/	/	/	i

# Assay outcomes from PubChem.
